Six1-Eya2 blk = blocks human Six1 binding to Eya2 | Q15475+O00167 | 360,000 tested, 0.56% active | activity change, % (concentration not given with the values) | AID 651725 | AlphaScreen GST-Six1/His-Eya2 binding, biochemical; active compounds read low; control for the full effect not named in the record; in the data active = activity change below about -65%; inconclusive = about -30% to -65%; inactive = above about -30%; note: % is set by controls: 0 for no effect and ±100 for the full control effect
Target sequence (O00167 whole entry, looked up): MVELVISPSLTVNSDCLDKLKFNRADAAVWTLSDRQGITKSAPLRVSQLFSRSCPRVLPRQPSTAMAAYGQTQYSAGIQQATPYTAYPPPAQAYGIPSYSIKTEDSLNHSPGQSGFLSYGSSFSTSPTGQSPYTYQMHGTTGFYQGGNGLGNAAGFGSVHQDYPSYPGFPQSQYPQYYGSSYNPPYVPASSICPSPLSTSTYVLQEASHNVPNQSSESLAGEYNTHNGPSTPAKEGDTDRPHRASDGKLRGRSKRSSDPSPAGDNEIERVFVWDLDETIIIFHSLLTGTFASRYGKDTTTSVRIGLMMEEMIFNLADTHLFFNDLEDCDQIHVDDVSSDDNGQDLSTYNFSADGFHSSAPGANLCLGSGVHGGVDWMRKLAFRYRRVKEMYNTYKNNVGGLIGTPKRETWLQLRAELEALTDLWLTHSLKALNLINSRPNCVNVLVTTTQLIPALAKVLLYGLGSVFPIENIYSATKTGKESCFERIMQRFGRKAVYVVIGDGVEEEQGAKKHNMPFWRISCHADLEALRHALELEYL
Target sequence (Q15475 whole entry, looked up): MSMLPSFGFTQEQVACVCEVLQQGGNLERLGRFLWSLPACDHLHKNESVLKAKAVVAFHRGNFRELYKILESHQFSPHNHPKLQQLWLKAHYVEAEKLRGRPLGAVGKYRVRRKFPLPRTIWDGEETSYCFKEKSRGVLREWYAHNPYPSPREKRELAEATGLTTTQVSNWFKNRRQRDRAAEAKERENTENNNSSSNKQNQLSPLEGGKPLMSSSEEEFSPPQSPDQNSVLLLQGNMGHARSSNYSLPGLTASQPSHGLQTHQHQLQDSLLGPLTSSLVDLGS
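Homogeneous AlphaScreen proximity assay pairing GST-Six1 with His-tagged Eya2 (added as 5X mix: 250 nM and 500 nM) in 50 mM Tris pH 8.0, 300 mM NaCl, 1 mM TCEP. Glutathione donor and nickel acceptor beads; 1 h, 37 °C, dark.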
TRPML1 blocker = human mucolipin-1 channel inhibition; activity change, negative = inhibition, % (no concentration beside the values); 390,000 tested, 0.02% active; TRPML1-inducible cells, Ca2+ dye fluorescence, FDSS; active compounds read low; inhibition of EC80 agonist-evoked calcium signal; Q9GZU1; in the data active means activity change below about -50%; inconclusive means about -30% to -50%; inactive means above about -30%;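 note: stimulus is agonist 54-4 at its EC80 concentration; % is set by controls: 0 for no effect and ±100 for the full control effect; compound concentration not given in the record; the text of the record puts the active cut at -80%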
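Calcium fluorescence in TRPML1-DL cells induced overnight with Tet: a 110 s read after compound pin addition, then a 110 s antagonist read after challenge with 54-4 at 4 uM final (EC80).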
D2 PAM = positive allosteric modulators of human D2 dopamine receptor; 360,000 tested, 0.23% active; potentiation, % (test concentration not listed); AID 624464; DiscoveRx D2 beta-arrestin cells, luminescence, 90 min; 100% = 57 uM dopamine signal; active = potentiation of 50% or more; inconclusive = 30% to 50%; inactive = 30% or less;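 note: compound concentration not given in the record; tested on top of an EC20 dose of dopamine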
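D2 cells co-treated with compound plus 50 nM dopamine (EC20) for 90 min at 37 deg C to detect potentiation. Beta-arrestin recruitment was read as enzyme-fragment luminescence after 1 h at ambient temperature. Full response was set by 57 uM dopamine.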
PINK1 expr mod = modulators of PINK1 expression; 410,000 tested, 0.2% active; Potency, µM (top dose mostly 76.6 µM), without a hit: top-dose activation (PINK1 increase), actives largely listed as activators; PINK1 immunofluorescence, high-content cytometry, 24 h; active = well fitted activation curve with a large enough effect; inconclusive = small, poorly fitted or top-dose-only effect; inactive = flat fitted curve, though single readings scatter; cell line not stated here;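 note: potency is the fitted concentration of half-maximal effect; % of control where 0% means no effect; nearly all actives have a fitted effect of over 65% in size; a mitochondrial uncoupler was the plate control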
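Compound titrations (5 concentrations, 24 h) on a stable cell line; DMSO and CCCP controls. Endpoint: fixed-cell PINK1 immunofluorescence with mitochondrial, cell and nuclear markers, scanned by microplate cytometer.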
D2 ag = agonists of human D2 dopamine receptor (beta-arrestin); P14416; DiscoveRx PathHunter D2 beta-arrestin, luminescence, 90 min; 100% = 57 uM dopamine signal; activation, % (concentration not given with the values); 360,000 tested, 0.084% active; AID 624465; in the data active = activation above about 40%; inconclusive = about 15% to 40%; inactive = below about 15%; note: compound concentration not given in the record; the text of the record calls up to 30% inactive
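Agonist mode: compounds alone added to overnight-plated D2 PathHunter cells for 90 min at 37 C, with 57 uM final dopamine (EC100) defining full response. Beta-arrestin recruitment detected by chemiluminescent reagent, read after 1 h at ambient temperature.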
TRPML1 ag = agonists of human TRPML1 channel; Q9GZU1; 410,000 tested, 0.12% active; TRPML1-expressing cells, Ca2+ dye fluorescence, FDSS; host cell line not named in the record; reference of the full effect not given here; activation, % (concentration not given with the values); in the data active = activation above about 50%; inconclusive = about 30% to 50%; inactive = below about 30%; note: 0% is about no effect; the text of the record puts the active cut at 80%
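Agonist activity was taken from a 110 s kinetic Ca2+ dye read on the FDSS after pinning compounds onto TRPML1-DL cells. The cells were seeded at 1,500/well with Tet inducer, incubated about 16 h, then dye-loaded at room temperature.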
* marks the source's active call; other numbers are inactive results; ? = inconclusive; . = not tested or not shown; [ ] = remark or other dose.

A first look (6 entries):
Keys – A = Six1-Eya2 blk; B = TRPML1 blocker; C = D2 PAM; D = PINK1 expr mod; E = D2 ag; F = TRPML1 ag
#1 CCCCc1cc(=O)oc2cc(OCC(=O)NCc3ccccn3)ccc12
  A: 3.3 | B: -8.4 | C: -2.6 | D: -1.3% | E: -5.0 | F: -1.0

#2 CC(C)(C)C(=O)C[n+]1ccc(C(N)=O)cc1
  A: 1.6 | B: 4.5 | C: -2.0 | D: 2.5% | E: -2.9 | F: -0.3

#3 COc1ccc(CC(=O)N2CCN(S(=O)(=O)c3cc(Cl)ccc3Cl)CC2)cc1
  A: 14.7 | B: 0.5 | C: -2.1 | D: 0.0% | E: 1.0 | F: 0.8

#4 COc1ccc([N+](=O)[O-])cc1NC(=O)COC(=O)Cn1cnc2ccccc2c1=O
  A: -7.8 | B: -10.0 | C: -25.8 | D: 2.4% | E: -5.1 | F: -1.5

#5 CCOc1ccc(/C=C(/NC(=O)c2ccc(Cl)cc2)C(=O)O)cc1OCC
  A: 1.5 | B: 0.5 | C: -2.3 | D: 0.6% | E: -0.9 | F: -0.3

#6 Cc1[nH]c2c(Br)cccc2c1[C@H]1[C@@H](CC#N)C1(C)C
  A: -13.7 | B: 12.5 | C: -19.4 | D: 4.6% | E: -1.7 | F: 1.2

Results, from the start:
Keys – A = Six1-Eya2 blk; B = TRPML1 blocker; C = D2 PAM; D = PINK1 expr mod; E = D2 ag; F = TRPML1 ag
#1 CCCCc1cc(=O)oc2cc(OCC(=O)NCc3ccccn3)ccc12
  A: 3.3 | B: -8.4 | C: -2.6 | D: -1.3% | E: -5.0 | F: -1.0

#2 CC(C)(C)C(=O)C[n+]1ccc(C(N)=O)cc1
  A: 1.6 | B: 4.5 | C: -2.0 | D: 2.5% | E: -2.9 | F: -0.3

#3 COc1ccc(CC(=O)N2CCN(S(=O)(=O)c3cc(Cl)ccc3Cl)CC2)cc1
  A: 14.7 | B: 0.5 | C: -2.1 | D: 0.0% | E: 1.0 | F: 0.8

#4 COc1ccc([N+](=O)[O-])cc1NC(=O)COC(=O)Cn1cnc2ccccc2c1=O
  A: -7.8 | B: -10.0 | C: -25.8 | D: 2.4% | E: -5.1 | F: -1.5

#5 CCOc1ccc(/C=C(/NC(=O)c2ccc(Cl)cc2)C(=O)O)cc1OCC
  A: 1.5 | B: 0.5 | C: -2.3 | D: 0.6% | E: -0.9 | F: -0.3

#6 Cc1[nH]c2c(Br)cccc2c1[C@H]1[C@@H](CC#N)C1(C)C
  A: -13.7 | B: 12.5 | C: -19.4 | D: 4.6% | E: -1.7 | F: 1.2

#7 c1ccc(-c2csc3ncnc(-n4cnc5ccccc54)c23)cc1
  A: 1.5 | B: -8.2 | C: -6.1 | D: 0.2% | E: -3.1 | F: 0.9

#8 C/C(=N/NC(=O)CN1CCN(S(=O)(=O)c2ccc(Br)cc2)CC1)c1ccncc1
  A: 0.1 | B: -10.7 | C: -5.7 | D: -0.1% | E: -2.1 | F: 0.1

#9 O=C(CC1S/C(=N/N=C/C=C/c2ccccc2)NC1=O)Nc1ccc(C(=O)O)cc1 (stereo not given)
  A: -29.1 | B: -0.4 | C: 0.8 | D: -0.5% | E: 1.6 | F: -0.6

#10 CC(=O)c1cccc(N(C(=O)CNC(=O)c2ccco2)C(C(=O)NC2CCCC2)c2ccco2)c1 (stereo not given)
  A: -17.8 | B: 16.3 | C: -9.7 | D: 3.9% | E: -2.9 | F: -1.5

#11 NS(=O)(=O)c1ccc(-c2ccc(/C=N/NC(=O)c3ccccc3O)o2)cc1
  A: -16.8 | B: -4.7 | C: -16.7 | D: -0.9% | E: -3.8 | F: -0.3

#12 CC1CN=C(NC2CCCCC2C)S1 (stereo not given)
  A: 3.5 | B: 3.8 | C: -6.0 | D: 0.7% | E: -3.4 | F: -0.1

#13 CNC(=O)CN1C(=O)NC(c2ccccc2)(c2ccccc2)C1=O
  A: 5.4 | B: 1.1 | C: -0.9 | D: -1.1% | E: -4.1 | F: 0.0

#14 C=C(C)CSc1nc2c(c(=O)[nH]c(=O)n2C)n1Cc1ccccc1
  A: 2.8 | B: ? | C: -10.3 | D: 0.0% | E: -4.1 | F: 0.4

#15 CC(C)NC(=O)C1CCC(Cn2c(=O)c3sccc3n(Cc3ccc(F)cc3)c2=O)CC1 (stereo not given)
  A: . | B: 0.5 | C: . | D: -0.9% | E: . | F: 1.2

#16 O=C(C1CCCN1S(=O)(=O)c1cccc2cccnc12)N1CCc2ccccc21 (stereo not given)
  A: -2.1 | B: -5.2 | C: -5.6 | D: 1.0% | E: -1.1 | F: -0.1

#17 Cc1ccccc1NC(=O)CSc1nc2ncc(Cl)cc2[nH]1
  A: 2.4 | B: 7.6 | C: -8.2 | D: -0.4% | E: -2.5 | F: 0.9

#18 COc1ccc(C(=O)NC(=S)NNC(=O)COc2ccccc2)cc1
  A: -2.3 | B: -0.7 | C: -4.3 | D: 13.8% | E: -8.8 | F: 0.3

#19 CCOC(=O)N1CCc2c(sc(NCc3sccc3C)c2C(=O)Nc2ccccc2OCC)C1
  A: . | B: 25.2 | C: . | D: 5.5% | E: . | F: -0.3

#20 O=C(Oc1ccc(/C=N/NC(=O)c2ccccc2O)cc1)c1ccccc1
  A: -19.2 | B: -4.6 | C: -17.3 | D: -1.2% | E: -3.1 | F: -0.1

#21 COCCN(C(=O)c1snc(C(N)=O)c1N)C(C(=O)NC1CCCCC1)c1ccc(OC)c(OC)c1 (stereo not given)
  A: -1.6 | B: 19.5 | C: -9.5 | D: 0.8% | E: -4.2 | F: 0.1

#22 CC(C)(C)NC(=O)CSc1nc2ccc(Nc3nc(N4CCOCC4)nc(N4CCOCC4)n3)cc2s1
  A: -0.9 | B: -1.4 | C: 7.6 | D: -0.5% | E: 1.0 | F: -0.9

#23 COc1ccc(-c2noc(CN3CCC(Cc4ccccc4)CC3)n2)cc1
  A: -0.9 | B: 6.1 | C: -5.3 | D: 0.1%[38.3 µM] | E: 0.4 | F: 0.7

#24 O=S(=O)(NCCSc1ccccc1)c1ccc2c(c1)OCCO2
  A: 4.6 | B: -5.7 | C: -1.5 | D: -1.9% | E: -0.4 | F: 3.2

#25 O=C(O)c1cccc(Oc2cccc(Cl)n2)c1
  A: -1.6 | B: -7.9 | C: 5.6 | D: 0.4% | E: -1.6 | F: 0.3

#26 Cc1ccccc1C(=O)Nc1ccc(OCc2cc(=O)n3ccccc3n2)cc1
  A: . | B: -4.8 | C: . | D: -1.8% | E: . | F: 0.4

#27 Cc1ccc(NC(=O)c2ncc(Cl)c(Cl)c2Cl)cc1C
  A: 5.3 | B: -6.9 | C: 0.8 | D: 12.3% | E: -4.9 | F: -0.2

#28 O=C(COc1ccccc1)NCC(=O)N1CCCC1
  A: 3.1 | B: 10.6 | C: -4.0 | D: -1.3% | E: -4.9 | F: -0.6

#29 CC(NC(=O)COc1ccc([N+](=O)[O-])cc1)c1ccccc1 (stereo not given)
  A: 2.8 | B: -1.3 | C: -5.7 | D: -1.1% | E: -3.2 | F: 2.6

#30 O=c1[nH]c(CSc2ncccn2)nc2c1cnn2-c1ccccc1
  A: 1.8 | B: 19.5 | C: 3.3 | D: -1.9% | E: 2.3 | F: 0.2

#31 O=C(/C=C/NCC(=O)c1ccccc1)c1ccc(Br)cc1
  A: -1.1 | B: -1.6 | C: -7.5 | D: 2.7% | E: 4.4 | F: -1.3

#32 Cc1ccc(S(=O)(=O)NNC(=S)NC(=O)c2ccc([N+](=O)[O-])cc2)cc1
  A: 1.1 | B: -15.1 | C: -9.7 | D: -0.7% | E: 0.5 | F: 1.3

#33 CC(Cl)C(=O)c1ccc2c(c1)CCN2C(=O)C1CC1 (stereo not given)
  A: -8.1 | B: -28.7 | C: -19.0 | D: -0.8% | E: 3.2 | F: 0.4

#34 O=S(=O)(NC1=NCCC1)c1cccs1
  A: 3.1 | B: 3.4 | C: 26.7 | D: . | E: 1.2 | F: 0.7

#35 CC(=O)N1C(=O)c2cccc3cccc(c23)C(=O)N1C(C)=O
  A: -0.2 | B: -2.8 | C: -0.8 | D: 1.3% | E: -3.7 | F: -0.5

#36 Cc1noc(C)c1COC(=O)[C@@H](NC(=O)c1ccccc1Cl)C(C)C
  A: -19.8 | B: -0.6 | C: -1.0 | D: -1.3% | E: 3.4 | F: 0.2

#37 COc1ccccc1NC(=O)c1cc(S(=O)(=O)N2CCCCCC2)ccc1F
  A: 0.9 | B: -4.2 | C: -5.2 | D: -1.1% | E: 1.3 | F: -1.1

#38 Cc1ccc(N2CCN(/N=C/c3cccnc3)CC2)cc1
  A: 2.2 | B: 7.2 | C: 8.7 | D: 4.3% | E: 0.5 | F: 1.6

#39 O=C(Nc1cccc(Cl)c1)c1cc(S(=O)(=O)NCCc2ccc(Cl)cc2)ccc1F
  A: 18.7 | B: 6.0 | C: -6.7 | D: ? | E: 0.3 | F: 3.8

#40 CN1C2CCC1CC(NS(=O)(=O)c1cccc(C(F)(F)F)c1)C2 (stereo not given)
  A: 1.8 | B: 7.5 | C: -17.4 | D: 1.8% | E: 0.8 | F: 0.5

#41 Cc1ccc(C(=O)Nc2cc(C(F)(F)F)ccc2-n2cncn2)o1
  A: -5.2 | B: 3.3 | C: 3.3 | D: 2.7% | E: -4.1 | F: -1.1

#42 CCCCC(=O)OCC(=O)C1(O)Cc2c(O)c3c(c(O)c2C(OC2CC(NC(=O)C(F)(F)F)C(O)C(C)O2)C1)C(=O)c1c(OC)cccc1C3=O (stereo not given)
  A: ? | B: -9.8 | C: ? | D: -1.2% | E: 10.3 | F: 6.1

#43 CCCNC(=O)C1(C)CCCN(C(=O)c2cc(C)nn2C(C)(C)C)C1 (stereo not given)
  A: 7.2 | B: . | C: -4.3 | D: 3.1% | E: -2.3 | F: -0.6

#44 Cn1cnnc1SCC(=O)NC1CCCCC1
  A: 1.5 | B: -10.2 | C: 0.3 | D: -0.6% | E: -5.0 | F: 0.6

#45 CN(Cc1ccccc1)S(=O)(=O)c1ccc2[nH]c3c(c2c1)CCCCC3
  A: . | B: 4.8 | C: . | D: ? | E: . | F: -0.3

#46 NC(=O)Nc1ccc(Cl)cc1
  A: 1.8 | B: 7.1 | C: -0.5 | D: -0.4% | E: 0.7 | F: -1.0

#47 Cc1c(C(=O)N2CCN(S(=O)(=O)c3cc(F)ccc3F)CC2)oc2ccccc12
  A: -9.6 | B: 14.6 | C: -2.7 | D: 0.4% | E: -1.1 | F: 3.9

#48 COc1ccccc1OCC(=O)Nc1ccccc1C(=O)NCc1ccco1
  A: 1.7 | B: 51.6 | C: -15.4 | D: 5.7% | E: -0.6 | F: 0.2

#49 Cn1c(NCc2ccc3occc3c2)nc2cc(-c3cccc(C(F)(F)F)c3)sc2c1=O
  A: 5.4 | B: . | C: 4.4 | D: 6.5% | E: -2.1 | F: -0.6

#50 CC1CCCC(NC(=O)CCCn2c(=O)[nH]c3cc(Cl)ccc3c2=O)C1C (stereo not given)
  A: 0.4 | B: 2.6 | C: 8.4 | D: 1.3% | E: -1.8 | F: 0.2

#51 CCOC(=O)N1CCN(C(=O)c2ccc(N3CCCC3=O)cc2)CC1
  A: 0.8 | B: 0.8 | C: -1.2 | D: 1.8% | E: -2.6 | F: -0.9

Bioassay records (PubChem BioAssay)
